# YopH inh: YopH tyrosine phosphatase inhibitors, primary screen, biochemical, fluorescence Ex485/Em525; AID 898, 2007; YopH tyrosine phosphatase [Yersinia enterocolitica]; 0.16% of 140,000 active; inhibition, %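 (about 10 µM by stock and volumes)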;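 active means inhibition of 50% or more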;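 further: controls were vehicle for no effect and minimum signal wells for full effect; inactives centre near -20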
# Mtb bLac sens: beta-lactam sensitization of Mtb H37Rv, H37Rv. AID 434955, 2010. M. tuberculosis H37Rv growth with meropenem, percent inhibition; hits of this screen are not shown here. 0.27% of 330,000 active. inhibition, % at 25 µM;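 active means about 74% or more and at least 40 points above the plate without the antibiotic, then above 30% in a dose series; inconclusive means first-round hits that could not be retested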;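 further: growth measured after seven days incubation then overnight dye step; 0% = bacteria only wells and 100% = bacteria with antibiotic; twin plates without the antibiotic show which effects depend on it; some results filed as inactive read as strong as hits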
# RecA intein inh: Mtb RecA intein splicing inhibitors, primary screen, biochemical, fluorescence, HTS; Protein RecA (Mycobacterium tuberculosis (strain ATCC 25618 / H37Rv)), P9WHJ3; inhibition, %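 (about 9 µM by stock and volumes)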; cell-free RecA intein splicing; AID 2221, 2009; 0.75% of 290,000 active; in the data active means inhibition above about 30%; inconclusive means no clear call, values can overlap the other calls;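 further: 0% = vehicle wells and 100% = reference inhibitor control wells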
# Target sequence (P9WHJ3 whole entry, looked up): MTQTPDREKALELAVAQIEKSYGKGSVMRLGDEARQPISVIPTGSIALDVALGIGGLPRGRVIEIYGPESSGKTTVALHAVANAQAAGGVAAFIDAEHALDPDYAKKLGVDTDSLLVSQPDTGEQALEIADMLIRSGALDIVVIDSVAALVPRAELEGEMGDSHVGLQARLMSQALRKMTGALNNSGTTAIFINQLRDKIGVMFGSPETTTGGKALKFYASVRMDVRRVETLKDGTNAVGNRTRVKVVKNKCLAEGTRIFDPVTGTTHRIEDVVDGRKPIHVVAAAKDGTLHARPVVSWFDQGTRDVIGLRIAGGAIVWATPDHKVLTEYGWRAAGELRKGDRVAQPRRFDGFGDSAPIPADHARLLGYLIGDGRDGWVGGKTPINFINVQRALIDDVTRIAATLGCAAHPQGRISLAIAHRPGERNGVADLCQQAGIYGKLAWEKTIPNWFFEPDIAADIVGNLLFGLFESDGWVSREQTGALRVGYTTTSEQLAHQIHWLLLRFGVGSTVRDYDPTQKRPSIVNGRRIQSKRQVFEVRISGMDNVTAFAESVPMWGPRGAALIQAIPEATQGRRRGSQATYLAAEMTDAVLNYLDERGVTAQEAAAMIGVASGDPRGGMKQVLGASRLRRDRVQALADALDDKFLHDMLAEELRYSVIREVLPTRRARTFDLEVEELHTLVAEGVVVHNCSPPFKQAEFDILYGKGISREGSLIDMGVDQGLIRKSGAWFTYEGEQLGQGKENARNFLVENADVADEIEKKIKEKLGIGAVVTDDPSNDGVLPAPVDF
# Mtb growth: M. tuberculosis H37Rv growth inhibitors, H37Rv strain (AID 1626) | M. tuberculosis H37Rv growth inhibition; higher % means a stronger effect | one-dose inhibition, % at 10 µM; IC50 in µM for titrated hits | 0.95% of 220,000 active;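 active means confirmed in a dose series; inconclusive means inhibition above 80% but not taken into the dose series; inactive means below 80% or under 30% at every dose of the series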;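 further: bacteria incubated seven days before Alamar blue readout; 0% = bacteria only wells and 100% = bacteria with antibiotic wells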
# Arbovirus inh: antivirals against arbovirus infection, primary screen, cell-based, full library, 10K replicate subset; AID 1251, 2008; 0.37% of 200,000 active; arbovirus infection cell-based antiviral screen; inhibition, % at 10 µM;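 active means inhibition from about 30%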;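 further: bluetongue infection of BSR cells; cell survival read as ATP light after 72 h; 0% = infected wells without compound and 100% = uninfected wells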
# Arbovirus inh repeat: also measured in Arbovirus inh; calls as there; inhibition, %; measured here: 10K subset replicate screen; many hits read low in the repeat;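 first of two repeat runs on a subset; 0% = infected and 100% = uninfected wells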
# The depositor's hits bear a star; ? = inconclusive; · = no result given.
SMILES,YopH inh,Mtb bLac sens,RecA intein inh,Mtb growth,Arbovirus inh,others
CCC/C(=N\NC(=O)C1CC1)c1ccc(Br)cc1,·,0,-1.5,·,·,
CC/C(CC(=O)C(F)(F)F)=N\NC(=O)/C(C#N)=C/N(C)C,·,5,2.6,6%,1,
CC1CC(C)CN(C(=O)CN2C(=O)NC(C)(C)C2=O)C1 (stereo not drawn),·,15,0.1,·,·,
O=C(CN1CCN(Cc2ccccc2Cl)CC1)N/N=C/C=C/c1ccco1,·,41,0.8,0%,·,
Cc1ccc(CN2CCCN(Cc3ccc(F)cc3Cl)S2(=O)=O)cc1,·,3,14,·,·,
COc1ccc(/C=C/C(=O)Oc2cccc(/C=N/NC(=O)c3cccc(F)c3)c2)cc1,-27,19,0.4,-2%,1,
O=C(CCN1CCc2ccccc2C1)Nc1cccc(F)c1,3,4,1.5,-9%,12,
CCOC(=O)Cn1c(SC)nc2sc3c(c2c1=O)CC(C)(C)OC3,-8,-7,1.0,-13%,6,
C(=N\n1cnnc1)/c1cccc(Oc2ccccc2)c1,-44,-14,3.5,3%,-2,
Cc1ccc(CN2CC(C(=O)Nc3ccncc3)CC2=O)cc1 (stereo not drawn),·,1,-5.8,·,·,
FC(F)(F)c1cnc2c(c1)Nc1ccccc1S2,-7,-20,-2.5,2%,-10,
CCc1cc2cc(C)cc(C)c2nc1SCC(=O)N1CCN(C(=O)c2ccco2)CC1,-21,9,·,11%,0,
COc1cc(C(=O)Nc2ccc(NC(=O)C(C)C)nc2)cc(OC)c1OC,·,2,-1.3,-5%,·,
CC(C)(C)NCCCCOc1ccccc1F,-54,0,-1.1,-1%,-3,
O=C(CN1CCSCC1)N/N=C/c1ccc(F)cc1F,-30,-9,0.9,-9%,6,
O=C(Nc1ccc(N2CCOCC2)c(Cl)c1)c1ccccc1Cl,·,-2,0.2,-1%,-9,
C=CCn1c(=O)c(C(=O)NCc2ccc(Cl)cc2)c(O)c2ccccc21,·,3,-2.6,·,·,
O=C(c1ccc(CS(=O)Cc2ccccc2Cl)o1)N1CCN(c2cccc(Cl)c2)CC1 (stereo not drawn),·,30,0.9,·,·,
CCOC(=O)c1ccc(N/C=C/C(=O)c2ccccc2)cc1,·,-1,-3.0,?,-12,
O=C1OC(CO)CN1Cc1ccccc1 (stereo not drawn),·,1,-2.2,·,·,
Cc1ccccc1C(=O)c1cccn1CC(=O)NC(C)CCc1ccccc1 (stereo not drawn),·,4,6.0,·,·,
COc1cccc(/C=C/C(=O)c2ccc(C)c([N+](=O)[O-])c2)c1,-23,26,1.4,18%,-13,
CSc1ccc(CN2CCC(O)CC2)cc1,-25,·,·,·,9,Arbovirus inh repeat=3
Cc1ccc(N(Cc2cc(=O)[nH]c3ccccc23)C(=O)CCl)c(C)c1,·,64,-1.7,·,·,
CSc1ccc(COC(=O)c2cc([N+](=O)[O-])ccc2N2CCOCC2)cc1,·,-3,2.4,·,·,

# Reprinted at random: four records from the list
SMILES,YopH inh,Mtb bLac sens,RecA intein inh,Mtb growth,Arbovirus inh,others
O=C(CN1CCN(Cc2ccccc2Cl)CC1)N/N=C/C=C/c1ccco1,·,41,0.8,0%,·,
Cc1ccc(N(Cc2cc(=O)[nH]c3ccccc23)C(=O)CCl)c(C)c1,·,64,-1.7,·,·,
C=CCn1c(=O)c(C(=O)NCc2ccc(Cl)cc2)c(O)c2ccccc21,·,3,-2.6,·,·,
CC(C)(C)NCCCCOc1ccccc1F,-54,0,-1.1,-1%,-3,

# Going on with the list.
SMILES,YopH inh,Mtb bLac sens,RecA intein inh,Mtb growth,Arbovirus inh,others
COCCNC(=O)C1CC(=O)N(CCc2ccccc2)C1 (stereo not drawn),-50,0,0.6,-8%,-12,
O=C(CS(=O)c1cccc(Cl)c1)Nc1ccccc1Cl (stereo not drawn),-46,-1,-1.3,-12%,1,
CC1CN(C(=S)Nc2cccc(Cl)c2Cl)CC(C)O1 (stereo not drawn),·,-1,0.5,·,·,
COc1ccc(NC(=O)N(Cc2ccc3c(c2)OCO3)C2CC(=O)N(c3ccc(OC)cc3)C2=O)cc1 (stereo not drawn),3,-7,-0.4,-7%,-2,
O=C(O)CSc1c(-c2ccccc2)[nH]c2ccccc12,-15,3,-4.3,-2%,-10,
CCOC(=O)c1ccc(NS(=O)(=O)CC)cc1,-8,-4,0.7,-5%,2,
Cc1cc(C(=O)CN2C(=O)c3ccccc3S2(=O)=O)c(C)n1-c1ccccc1,-40,-9,4.9,3%,-12,
O=C(COc1ccc(C(F)(F)F)cc1[N+](=O)[O-])Nc1cccc(C(F)(F)F)c1,-10,-1,-1.4,-4%,-6,
O=C(CNS(=O)(=O)c1cccs1)N1CCN(c2ccccc2F)CC1,·,3,0.9,·,·,
COc1ccc(S(=O)(=O)NC(C)C(=O)Nc2ccc3c(c2)OCO3)cc1OC (stereo not drawn),·,7,-1.7,·,·,
CCC(CC)NC(=O)c1cc2c(C)nn(Cc3ccccc3Cl)c2s1,-17,-4,0.2,-6%,-5,
O=c1[nH]cnc2c1cnn2Cc1ccccc1,-31,-16,·,-2%,1,
CCOC(=O)c1sc(NC(=O)Cc2ccc(C)cc2)nc1C,·,8,-14,5%,-18,
CCCSc1ccc2nc(-c3ccccc3)cn2c1,-8,41,5.0,1%,-12,
CC1CCN(c2ccc([N+](=O)[O-])cc2C(=O)O)CC1,-25,3,9.7,-3%,-4,
O=C(CCn1nnc(-c2cccs2)n1)NC1CCCCC1,-45,-4,0.3,-5%,-2,
CC1CCN(S(=O)(=O)c2ccc(C(C)C)cc2)CC1,·,2,·,-4%,-8,
CC(NC(=O)Cc1cccc(C(F)(F)F)c1)c1ccc(F)cc1 (stereo not drawn),·,3,-1.8,9%,-2,
Cc1ccc(-c2ocnc2C(=O)Nc2ccccc2C(=O)N2CCCC2)cc1,·,-5,0.5,·,·,
COCCCNC(=O)c1c(NC(=O)c2cccs2)sc2c1CCCC2,-7,-8,-5.6,9%,1,
COC(=O)c1cc(NC(=O)Cc2cccs2)cc(C(=O)OC)c1,·,1,-0.5,·,·,
COC(=O)NC1(C(F)(F)F)NC(=O)N(C2CCCCC2)C1=O (stereo not drawn),0,-13,1.0,-3%,11,
COc1ccccc1N1CCN(CC(=O)NC(=O)NCc2ccco2)CC1,-14,-8,-0.1,-5%,-11,
Cc1ccc(NC2CCCN(C(=O)CN3C(=O)c4ccccc4C3=O)C2)cc1C (stereo not drawn),·,-13,-2.8,·,·,
COC(c1ccccc1)c1nnc(CCC(=O)NCCC(C)C)o1 (stereo not drawn),·,-2,-3.9,3%,3,

# An excerpt from above in order of heavy-atom count, ascending.
SMILES,YopH inh,Mtb bLac sens,RecA intein inh,Mtb growth,Arbovirus inh,others
CCOC(=O)c1ccc(NS(=O)(=O)CC)cc1,-8,-4,0.7,-5%,2,
CC1CN(C(=S)Nc2cccc(Cl)c2Cl)CC(C)O1 (stereo not drawn),·,-1,0.5,·,·,
COC(=O)c1cc(NC(=O)Cc2cccs2)cc(C(=O)OC)c1,·,1,-0.5,·,·,
COC(c1ccccc1)c1nnc(CCC(=O)NCCC(C)C)o1 (stereo not drawn),·,-2,-3.9,3%,3,

# Further entries:
SMILES,YopH inh,Mtb bLac sens,RecA intein inh,Mtb growth,Arbovirus inh,others
Nc1n[nH]c(=S)n1/N=C1/C(=O)Nc2ccccc21,·,·,·,-2%,20,
Oc1c(C(c2ccccc2)N2CCc3ccccc3C2)sc2ncnn12 (stereo not drawn),-5,-7,10,-2%,8,Arbovirus inh repeat=12
Cn1c(=O)c(/C=C/c2ccccc2)nc2ccccc21,-15,0,1.2,6%,1,
CCCCn1cc([N+](=O)[O-])nc1C,·,-7,-2.0,0%,·,
CSc1ccccc1OCc1cc(C(=O)N(C)Cc2nonc2C)no1,·,0,1.7,·,·,
O=C(Nc1nnc(-c2ccncc2)s1)Nc1ccccc1F,·,4,0.2,7%,8,
CCn1c(=O)c(=O)n(CC)c2cc(S(=O)(=O)Nc3cc(C)ccc3C)ccc21,·,1,1.1,·,·,
Cc1ccc2nc(-c3ccc(NC(=S)NC(=O)C(C)C)cc3)sc2c1,4,80,-3.4,54%,4,
O=C(CCCn1cnc([N+](=O)[O-])n1)Nc1cccc2ccccc12,·,-8,8.7,3%,12,
Cn1nc2c(c1C(=O)O)CCCC2,-41,-6,-2.2,-1%,1,
COc1ccc(S(=O)(=O)NCCc2csc(-c3cccnc3)n2)cc1,-38,-1,-1.2,-8%,0,
CC(C)N(C)Cc1nnnn1CC(=O)NCCc1cccc(C(F)(F)F)c1,·,-2,-1.8,·,·,
CCn1ccc(C(=O)NC2=NCCS2)n1,-41,17,0.3,5%,4,
CCn1c(C)[n+](CC)c2ccc(S(=O)(=O)NC)cc21,·,-8,11,-7%,-2,
CCC(Sc1ncccc1C(=O)O)C(=O)N1CCCC1 (stereo not drawn),-52,-5,-1.7,-4%,-4,
CSCC[C@H](NC(=O)OC(C)(C)C)C(=O)N1CCC(C(=O)N[C@@H](Cc2c[nH]c3ccccc23)C(=O)O)CC1,·,-4,0.2,·,·,
Cc1ccc(NCC(=O)c2ccccc2)cc1Cl,-43,96,-0.5,?,-7,
COc1ccc(N(C(=O)Cc2cccs2)C(C(=O)NC2CCCC2)c2ccncc2)cc1OC (stereo not drawn),·,7,-2.0,·,·,
Cc1cccc(NC(=O)C2C3C=CC(C4CC34)C2C(=O)O)c1 (stereo not drawn),-20,-4,-0.1,-2%,-9,
N#CCCN/N=C(\Cc1nc2ccccc2[nH]1)c1ccccc1,-20,-7,3.6,0%,-3,
Cn1c(=O)c([N+](=O)[O-])c(N2CCN(Cc3ccc4c(c3)OCO4)CC2)c2ccccc21,·,27,-1.9,1%,·,
N#CC1=C(N)OC2=C(C(=O)CC(c3ccccc3)C2)C1c1cccnc1 (stereo not drawn),-34,-2,-0.1,0%,8,
Cc1ccc(/C=N/n2c(-c3cccnc3)n[nH]c2=S)s1,-20,-3,0.4,5%,-10,
COc1cccc(C(=O)Nc2ccc3ccccc3c2)c1,·,-1,1.2,·,·,
COc1cc(/C=C2/C(=O)ON=C2C)cc(Cl)c1O,·,-2,0.4,·,·,

# More structures:
SMILES,YopH inh,Mtb bLac sens,RecA intein inh,Mtb growth,Arbovirus inh,others
Cc1[nH]c2c(ccc3cccnc32)c1C,·,6,-3.5,2%,·,
Cc1oc(-c2ccccc2Cl)nc1CS(=O)CC(=O)NCCCN1CC(C)CC(C)C1 (stereo not drawn),·,-5,-0.1,·,·,
O=C(CSc1nccn1-c1ccccc1)c1ccc(Cl)cc1,-36,6,1.5,·,-6,
CCN(CCCNC(=O)C1CCN(S(=O)(=O)CC)CC1)c1cccc(C)c1,-19,-5,·,-5%,11,
CCc1ccc(NC(=O)N(CCCOC(C)C)C2CCN(C(C)=O)CC2)cc1,-40,5,0.5,11%,-4,
O=[N+]([O-])c1cccc(/C=N/N2CCN(Cc3ccccc3)CC2)c1,·,-14,2.4,2%,10,
CCC(C)NC(=O)Nc1ccc(F)c(Cl)c1 (stereo not drawn),·,-3,-0.9,-3%,-2,
OC(CNC1CCCC1)COc1ccc(F)cc1 (stereo not drawn),·,-5,-2.3,·,·,
CC(O)C(C(=O)OCc1ccc([N+](=O)[O-])cc1)N1C(=O)c2ccccc2C1=O (stereo not drawn),-27,8,·,-6%,13,
Nc1nonc1-n1nnc(C(=O)N/N=C/c2ccc3c(c2)OCO3)c1-c1ccccc1,·,-1,0.2,·,·,
COc1ccc(CNCCc2c[nH]c3ccccc23)cc1OC,·,-4,-2.2,·,·,
OC1CCCN(Cc2cn(Cc3ccccc3)nc2-c2cc3ccccc3o2)C1 (stereo not drawn),·,3,2.5,8%,-22,
Cc1nn(-c2ccccc2)c(Cl)c1C(=O)NCc1cccs1,0,3,4.1,4%,-6,
O=C(CSc1ccc(-c2ccccn2)nn1)NCc1ccccc1,·,0,1.1,-7%,-34,
C=CCNC(=O)COC(=O)C1CCN(S(=O)(=O)c2ccc3c(c2)OCCO3)CC1,·,-5,0.9,·,·,
Cc1cccc2cc(CN(Cc3ccc4c(c3)OCO4)Cc3nnnn3C3CCCC3)c(=O)[nH]c12,-3,12,2.0,5%,-6,
Fc1ccc(-n2nnc(-c3cnc4ccccc4c3)n2)cc1,·,-5,3.0,-5%,6,
CCCCOc1ccc(C(O)(CCC)CCN2CCOCC2)cc1 (stereo not drawn),-18,0,1.3,-2%,3,
CCCOc1cccc(C(=O)N/N=C/c2coc3ccccc3c2=O)c1,·,5,4.2,·,·,
O=C(C1COc2ccccc2O1)N1CCN(Cc2ccc(Br)cc2F)CC1 (stereo not drawn),·,1,6.7,·,·,
Cc1ccc(C)c(SCC(=O)Nc2cc(C)nn2-c2ccc(F)cc2)c1,-5,·,·,6%,1,

# Screening results (PubChem)

# This is a subset; the hit share may differ from the screen's.
